# KCNQ2 enhance: potentiators of rat KCNQ2 potassium channel | Potassium voltage-gated channel subfamily KQT member 2 (Rattus norvegicus), O88943 | CHO-K1 KCNQ2, FluxOR thallium flux fluorescence; stronger effect = higher value | B-score at 10 µM | actives 0.54% (n = 310,000);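 active means fluorescence ratio B-score at least 3 SD of library B-scores, with initial fluorescence B-score within 3 SD, cut at about 5.3 in these data; same plate scores as AID 2156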;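 further: B-score of peak minus minimum over baseline fluorescence ratio after K+ and Tl+ stimulus; positive B-score means potentiation of KCNQ2 with more thallium influx and brighter signal; only the inactives scoring about 0 or higher are listed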
# Target sequence (O88943 whole entry, looked up): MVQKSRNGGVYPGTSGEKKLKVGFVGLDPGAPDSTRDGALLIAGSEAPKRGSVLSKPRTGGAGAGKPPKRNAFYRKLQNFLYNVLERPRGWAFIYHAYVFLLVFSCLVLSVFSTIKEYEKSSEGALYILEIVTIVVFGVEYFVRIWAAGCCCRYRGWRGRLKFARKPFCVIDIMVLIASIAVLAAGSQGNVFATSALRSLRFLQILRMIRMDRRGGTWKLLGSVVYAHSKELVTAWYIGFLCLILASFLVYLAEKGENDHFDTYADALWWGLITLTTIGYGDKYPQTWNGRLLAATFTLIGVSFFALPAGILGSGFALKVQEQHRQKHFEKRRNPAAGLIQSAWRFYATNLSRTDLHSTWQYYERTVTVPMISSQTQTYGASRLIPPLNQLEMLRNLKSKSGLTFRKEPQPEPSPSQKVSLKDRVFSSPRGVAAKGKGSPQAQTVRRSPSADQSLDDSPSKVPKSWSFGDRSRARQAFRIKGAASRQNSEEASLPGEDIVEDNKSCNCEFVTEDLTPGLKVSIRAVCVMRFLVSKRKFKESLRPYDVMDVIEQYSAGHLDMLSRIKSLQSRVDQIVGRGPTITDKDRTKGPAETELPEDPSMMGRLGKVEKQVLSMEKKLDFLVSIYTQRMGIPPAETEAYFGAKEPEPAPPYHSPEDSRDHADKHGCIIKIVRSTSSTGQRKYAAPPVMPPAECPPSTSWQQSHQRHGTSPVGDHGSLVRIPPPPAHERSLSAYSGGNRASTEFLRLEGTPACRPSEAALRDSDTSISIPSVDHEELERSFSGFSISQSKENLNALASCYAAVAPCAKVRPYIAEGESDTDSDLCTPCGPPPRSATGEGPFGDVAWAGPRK
# KCNQ2 enhance baseline: also measured in KCNQ2 enhance; calls as there; B-score; compound at 10 µM; measured here: initial fluorescence intensity artifact check;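 brightness before thallium and not channel activity; 0 = typical well and far values either way flag optical interference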
# Active calls of the source: *. An excerpt, so the mix of outcomes need not match the whole.
# Sample of the layout (2 entries):
KCNQ2 enhance	KCNQ2 enhance baseline	canonical_smiles
0.87	-0.64	CC(C)(C)c1nnc(NS(=O)(=O)c2ccc([N+](=O)[O-])cc2)s1
0.53	0.03	Cc1cccc(C(=O)Nc2ccc3c(c2)nc(C)n3C)c1

# Main list, repeating the preview:
KCNQ2 enhance	KCNQ2 enhance baseline	canonical_smiles
0.87	-0.64	CC(C)(C)c1nnc(NS(=O)(=O)c2ccc([N+](=O)[O-])cc2)s1
0.53	0.03	Cc1cccc(C(=O)Nc2ccc3c(c2)nc(C)n3C)c1
2.3	-0.01	CCOc1ccc(NS(=O)(=O)c2ccc(C(=O)NC3CCC(O)CC3)cc2)cc1 (stereo not given)
0.09	-0.75	O=C(CSc1nnc(-c2ccc([N+](=O)[O-])cc2)o1)Nc1ccccn1
0.34	-0.69	Cn1c(CNC(=O)c2ccc3c(c2)OCO3)nnc1SCC(=O)Nc1ccccc1Cl
0.05	-1.4	Cc1ccc2cc3c(N)c(C(=O)Nc4c(C)[nH]c(=O)[nH]c4=O)sc3nc2c1
0.35	0.8	COc1ccc(N=Cc2c(O)cc(C)oc2=O)cc1
1.7	-0.51	COc1ccccc1NC(=O)c1nnn(CC(=O)Nc2ccccc2)c1N
0.05	-0.2	CC12CCC(=O)N1C(C(=O)N1CCN(S(=O)(=O)c3ccc(F)c(F)c3)CC1)CS2 (stereo not given)
8.7*	0.46*	CCCCc1cc(O)c(CCCC)c(O)c1
0.79	1.4	O=C(NCc1ccco1)c1c(O)c2cccc3c2n(c1=O)CCC3
0.93	-0.14	CCc1cc[n+](C2=C([O-])c3ccccc3C(=O)/C2=N\S(=O)(=O)c2cccs2)cc1
0.5	-0.13	Cc1ccc(NC(=O)CCOc2ccccc2C)cc1C
0.25	1.5	CCOc1ccc(S(=O)(=O)N2CCCCC2)cc1NC(=O)CC1OC(=O)c2ccccc21 (stereo not given)
0.11	0.61	Cc1ccc(-c2nc3ncccc3o2)cc1NC(=S)NC(=O)c1ccco1
0.83	-0.43	CN(C)c1ccc(C(=O)OCC(=O)NCC2CCCO2)cc1 (stereo not given)
0.15	-0.29	Cc1ccc2c(c1)/C(=C/c1ccccc1)C(=O)N2
1.7	0.64	COc1ccc(CC(=O)NCC(=O)N/N=C/c2sccc2C)cc1
0.35	-2.7	Nc1ncc(Br)cc1S(=O)(=O)NCCC(=O)NCc1ccc(F)cc1
2	-0.18	Nc1[nH]n2c(=O)c3c(nc2c1N=Nc1ccc(Cl)cc1)CCCC3
2.6	-1.4	OCc1nnc2c3ccccc3c(-c3ccccc3)nn12
1.1	-2.3	O=C(CN1CCCCC1)N/N=C/c1ccccc1Br
2.9	0.09	Cc1cc(S(=O)(=O)N2CCN(C(=O)CCC(=O)N3CCOCC3)CC2)ccc1Br
0.68	1	COCCCNC(=O)c1cc2c(-c3ccc(Cl)cc3)nn(C)c2s1
1	0	CCOC(=O)C1CCCN(Cc2cc(Br)c(OC)cc2OC)C1 (stereo not given)
0.37	-0.87	COc1cc(/C=N/NC(=O)C(=O)NCc2ccco2)cc(Br)c1O
0.09	0.12	O=C(Cn1cncn1)NCc1ccc(Cl)cc1
0.38	-0.1	C=CCNc1ncnc2c1cnn2-c1cccc(C)c1
0.39	2.1	COc1ccccc1NC(=O)Nc1ccc2c(c1)nc(C)n2C
0.29	1.1	N#Cc1c(-c2ccccc2)cc2nc3ccccc3n2c1N
3.1	0.22	Cc1oc(-c2ccccc2Cl)nc1CS(=O)CC(=O)NCc1ccc(Cl)cc1 (stereo not given)
0.18	1.2	CSc1ccc(CN(C)C(=O)c2cccc(S(=O)(=O)N3CCN(Cc4ccccc4)CC3)c2)cc1
0.75	0.37	COc1ccc([N+](=O)[O-])cc1NC1C2CC3CC(C2)CC1C3 (stereo not given)
1.3	-0.9	O=[N+]([O-])c1ccccc1OCCCN1CCc2ccccc2C1
0.65	-1.2	Cc1ccc(CN2C3=NCCN3c3ccccc32)cc1
1.1	0	CCN(CC)CCCNC(=O)c1cc(-c2ccc(O)cc2)on1
1.6	0.09	CCOC(=O)C(NC(=O)c1ccc(F)cc1)(Nc1sc2c(c1C(N)=O)CCC2)C(F)(F)F (stereo not given)
0.04	1.1	COCC(=O)N(C)CC1CCCN(CCc2ccccc2OC)C1 (stereo not given)
0.12	1.4	Cc1cccc(OCC(=O)Nc2ccccc2N2CCN(C)CC2)c1
0.13	0.1	CC(/C=N\NC(=O)CN1CCN(S(=O)(=O)c2ccc(C)cc2)CC1)=C\c1ccccc1
0.89	-2.9	CCCCN1Cc2c(nc3cc(-c4ccccc4)[nH]n3c2=O)C1=O
0.9	-2.2	O=C(N/N=C/c1c[nH]c2ccccc12)c1ccc2c(c1)OCCO2
0.89	0.94	Cc1ccc(OCC(=O)Nc2ccon2)c([N+](=O)[O-])c1
0.01	-1.4	COc1cccc(CNC(=O)CCCN2C(=O)C(c3ccccc3)Oc3cccnc32)c1OC (stereo not given)
0.11	-0.33	COc1cc(C(C)=O)ccc1OCC(O)Cn1nc(C)c(Br)c1C (stereo not given)
1.7	0.02	COC(=O)[C@H](CCSC)NC(=O)Nc1ccc(OC)c(Cl)c1
0.4	-0.56	COc1ccc(-c2cc3ccccc3oc2=O)cc1NC(=O)c1ccc([N+](=O)[O-])o1
1.1	0	COc1ccc(-c2c(C)c3ccc(OCC(C)=O)cc3oc2=O)cc1
0.5	-2.3	COc1ccc(-c2nn(-c3ccccc3F)cc2CNCCn2nc(C)cc2C)cc1
0.42	0.05	O=C(OCn1nnc2ccccc2c1=O)c1ccc(S(=O)(=O)N2CCOCC2)cc1
0.16	-1.1	CC(/C=N/NC(=O)c1sc(N)nc1C)=C\c1ccccc1
0.03	-0.51	CCOC(=O)c1c(S(=O)(=O)NCCCc2ccco2)c(C)n(C)c1C
0.17	-2.1	COc1ccc(OCC(=O)NCCNC(=O)c2cccnc2)cc1
0.07	-1.8	O=C1CC(C2CCCO2)C(=O)N1Cc1ccccc1 (stereo not given)
0.05	0.03	CCOc1ccc2c(c1)OC(c1ccc(C)cc1)(C(F)(F)F)NC2=O (stereo not given)
0.04	-0.41	Cc1ccc(NC(=O)CSc2ccccc2NC(=O)c2cccc(Cl)c2)cc1Cl
0.01	1.2	COc1cc2nc(CC(C)C)n(NC(=O)c3ccccc3)c(=O)c2cc1OC
0.55	0.03	Cc1ccc(COC(=O)NCc2cccnc2)cc1
0.71	1.1	COc1ccc(C(=O)Nc2ccccc2NC(=O)c2ccco2)c(OC)c1
0.53	0	COc1ccc(OCc2cc(C(=O)NCc3cccc(C)n3)no2)c(Cl)c1

# The listing continues.
KCNQ2 enhance	KCNQ2 enhance baseline	canonical_smiles
1.4	-0.83	CC(OC(=O)c1ccc2ncsc2c1)C(=O)NCc1ccccc1 (stereo not given)
1.7	0.29	COc1ccc(C(=O)NCCC2=CCCCC2)cc1OC
1.1	-2.9	FC(F)(F)Oc1ccc(-c2cn3cccnc3n2)cc1
0.68	0.69	CCOC(=O)CSc1nc2c(c(=O)[nH]c(=O)n2C)n1CCCc1ccccc1
0.01	0	CCOC(=O)c1ccc(N2C(=O)CC(Sc3ncccn3)C2=O)cc1 (stereo not given)
0.1	-0.53	CCNC(=S)N1CCC(C(N)=O)CC1
0.39	2.1	O=C(CN(Cc1ccco1)S(=O)(=O)c1ccccc1)N/N=C/c1ccccc1C(=O)O
0.81	0.02	N#CCC(=O)N/N=C/c1ccc(Sc2nc3ccccc3s2)o1
0.17	2.4	CCc1cccc(NC(=O)COC(=O)C2CCN(c3ccc(C(F)(F)F)cn3)CC2)c1
1	0.68	CC(=O)Nc1cc[n+](C(C)C(=O)c2ccccc2)cc1 (stereo not given)
1	-0.14	COc1ccc(CN2CCCCC2C(=O)Nc2ccc(OC)c(OC)c2)cc1OC (stereo not given)
1.1	0.14	O=C(CC1Sc2ccccc2NC1=O)Nc1cccnc1 (stereo not given)
1.1	-1.2	CC(NS(=O)(=O)c1ccc(OCC(=O)N2CCOCC2)cc1)c1ccccc1 (stereo not given)
0.81	-1.2	Cc1ccc(S(=O)(=O)N2CCC(C(=O)OC3CCOC3=O)CC2)cc1C (stereo not given)
3.5	0.57	O=C(CSc1n[nH]c(=O)n1C1CC1)Nc1ccc(Cl)c(Cl)c1
3.4	0	COC(=O)c1ccc(CSc2nc3ccc(Cl)cc3[nH]2)o1
0.1	0.76	COc1cc(C(=O)OC(C)CN2CCCC2)cc(OC)c1OC (stereo not given)
0.03	-2.8	Cc1ccc(S(=O)(=O)/N=C(/Nc2ccc3[nH]c(=O)[nH]c3c2)c2ccc(F)cc2)cc1
0.37	-0.13	O=S(=O)(c1ccc(NCc2ccccc2)cc1)N1CCOCC1
0.05	0.04	Cc1ccc(S(=O)(=O)CCC(=O)NCCc2ccc(Cl)cc2)cc1
1.6	-0.08	CCOc1cc(O)c(-c2[nH]ncc2-c2nc(C)cs2)cc1CC
0.94	-0.29	O=[N+]([O-])c1ccc2c(OCc3nnc(-c4ccccc4Br)o3)ncnc2c1
0.9	-0.06	O=C(C1CCCO1)N1CCN(C(=S)Nc2ccccc2C(F)(F)F)CC1 (stereo not given)
1.2	1.4	CN(Cc1ccccc1)S(=O)(=O)c1ccc(OCC(=O)N2CCC(C(N)=O)CC2)cc1
0.16	1.1	COc1ccccc1NC(=S)NCc1ccc(F)cc1
0.53	-0.42	CCC(=O)N1Cc2ccccc2-c2ccccc2C1=O
0.96	-0.84	Cc1cc(=O)n2nc(N3CCC(C(=O)NCc4ccco4)CC3)sc2n1
0.63	1.6	Cc1csc(N(C)C(=O)CSc2nnc(COc3cccc4ccccc34)o2)n1
0.05	-0.11	CC/C(=N\Nc1ccc([N+](=O)[O-])cc1)c1ccccc1
0.08	3	CC(=O)n1c(-c2ccccc2)c(CO)c2ccccc21
0.34	1.4	N#Cc1ccc(Oc2nc(Nc3ccc(F)cc3)nc(N3CCCC3)n2)cc1
2.2	-1.5	COc1cccc(C(C(=O)NC2CCCC2)N(C(=O)c2ccco2)c2ccc(NC(C)=O)cc2)c1OC (stereo not given)
0.59	0.04	CC1CCC2CCCCC2N1C(=O)c1cc([N+](=O)[O-])cc([N+](=O)[O-])c1 (stereo not given)
0.49	-0.31	CNS(=O)(=O)c1ccc(N=Cc2c(C)[nH]n(-c3ccc(C)cc3C)c2=O)cc1
0.02	1.5	N#CC1C(C#N)N2CCCN2C1c1ccc(Cl)cc1 (stereo not given)
1.6	-1.9	CCCn1c(SCc2cc(=O)oc3ccc4ccccc4c23)n[nH]c1=O
0.02	0.87	COc1ccc(NC(=S)NCc2ccco2)c(OC)c1
1.1	0.41	O=C(CCc1nc(-c2ccccc2F)no1)NC1CCCCCC1
0.62	-0.45	CC(C)Cn1c(SCC(=O)Nc2ncccn2)nc2ccccc21
0.51	-1.7	Cc1ccccc1Oc1ncccc1C(=O)/C(C#N)=C/N(C)C
0.06	2.4	Cc1csc2nc(CCNS(=O)(=O)c3ccc4c(c3)OCCO4)cn12
2.5	0.79	COc1ccc(C(=O)NCCCCc2ccccc2)cc1
0.25	0.91	CN=C(Nc1ccccc1)SC1CC(=O)N(c2cccc(OC)c2)C1=O (stereo not given)
0.59	0.37	Cn1c(=O)cc(OCC(=O)N2CCN(c3cccc(C(F)(F)F)c3)CC2)c2ccccc21
0.17	-0.49	Cc1nn(-c2ccccc2)c(N)c1C1(O)C(=O)N(C)c2ccccc21 (stereo not given)
0.57	-2.2	Cc1nc2c(S(=O)(=O)c3ccccc3)cnn2c(C)c1C
0.24	-0.47	O=C(CCCn1c(SCC(=O)c2ccc(O)c(O)c2)nc2ccccc2c1=O)NCC1CCCO1 (stereo not given)
0.63	-0.25	CNC(=O)c1ccccc1S(=O)c1ccccc1COC(C)=O (stereo not given)
0.9	-0.47	CCS(=O)(=O)NCCc1cc2c(OC)ccc(OC)c2[nH]c1=O
1.2	0.54	CC(=O)Nc1ccc(OS(=O)(=O)c2cc(Cl)ccc2C)cc1
0.72	-1.7	c1ccc(-c2cnc(-c3ccccn3)nn2)cc1
0.4	-0.36	CCc1ccccc1NC(=O)C1CCCN1S(=O)(=O)c1ccc2c(c1)n(C)c(=O)c(=O)n2C (stereo not given)
0.6	0.06	Cc1cccc(OCc2n[nH]c(=S)o2)c1C
0.76	2.4	COc1cc(OC)cc(C(=O)OCn2nnc3ccccc3c2=O)c1
0.48	-0.11	COc1ccc2c(c1)c1ncn(CCCN3CCOCC3)c(=O)c1n2C
1.1	0.72	c1cnn(Cc2cnc(N3CCOCC3)s2)c1

# Arranged by count of non-hydrogen atoms (low to high): some entries from above.
KCNQ2 enhance	KCNQ2 enhance baseline	canonical_smiles
0.6	0.06	Cc1cccc(OCc2n[nH]c(=S)o2)c1C
1.1	0.72	c1cnn(Cc2cnc(N3CCOCC3)s2)c1
0.72	-1.7	c1ccc(-c2cnc(-c3ccccn3)nn2)cc1
0.02	0.87	COc1ccc(NC(=S)NCc2ccco2)c(OC)c1
2.5	0.79	COc1ccc(C(=O)NCCCCc2ccccc2)cc1
1.2	0.54	CC(=O)Nc1ccc(OS(=O)(=O)c2cc(Cl)ccc2C)cc1
0.9	-0.47	CCS(=O)(=O)NCCc1cc2c(OC)ccc(OC)c2[nH]c1=O
0.62	-0.45	CC(C)Cn1c(SCC(=O)Nc2ncccn2)nc2ccccc21
0.17	-0.49	Cc1nn(-c2ccccc2)c(N)c1C1(O)C(=O)N(C)c2ccccc21 (stereo not given)
0.25	0.91	CN=C(Nc1ccccc1)SC1CC(=O)N(c2cccc(OC)c2)C1=O (stereo not given)
0.59	0.37	Cn1c(=O)cc(OCC(=O)N2CCN(c3cccc(C(F)(F)F)c3)CC2)c2ccccc21
0.4	-0.36	CCc1ccccc1NC(=O)C1CCCN1S(=O)(=O)c1ccc2c(c1)n(C)c(=O)c(=O)n2C (stereo not given)
0.24	-0.47	O=C(CCCn1c(SCC(=O)c2ccc(O)c(O)c2)nc2ccccc2c1=O)NCC1CCCO1 (stereo not given)

# Screening data as filed in PubChem BioAssay.
